High-throughput results from PubChem BioAssay.
Bfl-1 A1 inh – inhibitors of the anti-apoptotic protein A1, read as caspase activation | caspase activation, % (no concentration beside the values) | 0.066% of 330,000 active | AID 2462 | MEF A1-2A-BIM cells, Caspase-Glo 3/7 luminescence, 3 h; percent of clofoctol response, vehicle zero;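 active = over half of replicate activation scores above 10%, or exactly half above 10 with the replicate mean above 10; inconclusive = replicate mean below 10 yet half the replicates above 10; inactive = over half of replicates below 10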;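 also: wells of about 30 µL received 50 nL stock; many hits fall short of the cut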
ALR H2O2 inh – blocks human ALR sulfhydryl oxidase activity; P55789; purified ALR, DTT oxidation, H2O2 HRP-luminol luminescence; inhibition, % (concentration not given with the values); 3.8% of 290,000 active;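 active = mean and each replicate at 75% or more; inconclusive = only one of the two met; inactive = neither met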;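 also: stock transfer was 7.5 nL into about 7.5 µL; 0% = neutral wells and 100% = wells with inactivated enzyme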
Target sequence (P55789 whole entry, looked up): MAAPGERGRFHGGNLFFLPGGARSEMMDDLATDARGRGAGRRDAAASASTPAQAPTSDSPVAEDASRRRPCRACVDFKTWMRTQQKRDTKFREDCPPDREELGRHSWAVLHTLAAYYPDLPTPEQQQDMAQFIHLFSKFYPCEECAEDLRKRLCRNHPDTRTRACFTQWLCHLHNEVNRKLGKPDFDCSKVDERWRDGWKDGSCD
B2AR ag – activates human beta-2 adrenergic receptor causing internalization; P07550; Am2.2-beta2AR cells, FAP receptor internalization, flow cytometry; reference of the scale not given here; response, % (concentration not given with the values); 0.43% of 340,000 active; AID 504454;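 active = response above a set limit, near 3 SD of response in nonfluorescent compounds, cut at about 42% in these data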;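 also: stock transfer was 100 nL into about 11 µL; a reference agonist was the positive control; negative values mostly stem from fluorescent compounds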
Target sequence (P07550 whole entry, looked up): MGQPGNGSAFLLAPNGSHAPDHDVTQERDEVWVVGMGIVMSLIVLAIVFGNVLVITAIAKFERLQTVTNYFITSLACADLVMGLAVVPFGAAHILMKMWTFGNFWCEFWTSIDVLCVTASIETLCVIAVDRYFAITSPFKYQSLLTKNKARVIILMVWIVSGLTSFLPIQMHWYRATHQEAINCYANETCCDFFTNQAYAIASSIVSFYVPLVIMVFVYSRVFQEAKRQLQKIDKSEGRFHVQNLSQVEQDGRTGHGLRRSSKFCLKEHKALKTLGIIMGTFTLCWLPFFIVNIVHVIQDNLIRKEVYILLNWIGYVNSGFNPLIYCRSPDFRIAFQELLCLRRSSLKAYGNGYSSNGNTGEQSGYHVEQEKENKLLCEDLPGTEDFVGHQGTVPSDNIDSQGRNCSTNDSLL
rRNA inh HTS – selective bacterial rRNA inhibition in E. coli; 1.6% of 350,000 active; GFP signal change (wild-type ribosome), % (test concentration not listed); AID 720706; E. coli WT GFP vs humanized-ribosome RFP mutants, fluorescence, 24 h; active compounds read low; DMSO median 0, no signal -100;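 active = significant combined selectivity score with lowered wild-type GFP, culture density cut under 30%, mutant RFP and density less affected; inactive = any of these conditions unmet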; also: one replicate is shown; some compounds called inactive have numbers as strong as hits
T cruzi inh – blocks replication of Trypanosoma cruzi; T. cruzi beta-gal in NIH3T3, luminescence, 90 h; inhibition, % (no concentration beside the values); 1.4% of 300,000 active; AID 1885;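 active = mean inhibition across valid replicates above about 55%, limit read from the data; inconclusive = mean below that limit but half or more replicates reach it; inactive = mean below it, under half of replicates reach it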;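 also: signal also drops with host cell toxicity which is not excluded here; 0% = plate median of DMSO wells and 100% = zero luminescence signal; higher percent means less beta-gal luminescence so fewer parasites; stock transfer was 50 nL into about 50 µL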
LANA-H2A inh – blocks KSHV LANA binding to histone H2A/H2B | 0.6% of 320,000 active | cell-free LANA-H2A/H2B peptide, fluorescence polarization | inhibition, % (no concentration beside the values) | Q9QR71; in the data active = inhibition mostly above about 10%, no sharp cut-off; inactive = mostly below about 6.7%;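 also: stock transfer was 7.5 nL into about 10 µL; 0% = median of vehicle wells and 100% = median of positive control wells; one replicate is shown; the record names a cut of 25% in any replicate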
Calb FLC – C. albicans growth modulation with fluconazole | C. albicans CaCi-2 (fluconazole-resistant clinical isolate) + fluconazole, Alamar Blue growth, 48 h | growth inhibition, % (test concentration not listed) | 0.57% of 300,000 active | AID 1979;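 active = most replicates above 75%; inconclusive = exactly half above 75%; inactive = most below 75%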;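 also: all wells also contain fluconazole at 8 µg/ml as a sub-toxic cotreatment; 0% = median of DMSO wells and 100% = median of geldanamycin control wells; wells of about 8 µL received 7.5 nL stock; the first replicate is given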
Beta apoptosis – blocks beta cell apoptosis; INS-1E cytokine-induced death, ATP luminescence, 48 h; percent of positive-control rescue, neutral wells zero; protection from apoptosis, % (no concentration beside the values); 0.8% of 300,000 active; AID 435005;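 active = all replicates at 75% or more, or half of them and the mean; inconclusive = half reach 75% but not the mean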;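 also: 0% = cytokine-treated negative control wells and 100% = positive control rescue; higher means more ATP so stronger rescue from cytokine killing; wells of about 40 µL received 100 nL stock; the first replicate is given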
rRNA inh HTS OD600 – second read-out of rRNA inh HTS, no call of its own (marks repeat the call); OD600 change, %; measured here: OD600 growth;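 optical density of the mix in the first replicate; 0 = DMSO median and -100 = no signal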
rRNA inh HTS RFP – further read-out of rRNA inh HTS, marked with its call; RFP signal change, %; measured here: RFP humanized mutant strains;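 first replicate; 0 = DMSO median and -100 = no signal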
Active calls of the source: *; ? = inconclusive; . = no result given. Not all compounds are listed; rates above refer to the full screens.

SMILES	Bfl-1 A1 inh	ALR H2O2 inh	B2AR ag	rRNA inh HTS	rRNA inh HTS OD600	rRNA inh HTS RFP	T cruzi inh	LANA-H2A inh	Calb FLC	Beta apoptosis
CCOc1ccc(N(C)S(=O)(=O)c2c[nH]c(C(=O)OC)c2)cc1	0.3	-2	-29	-4	-4	-0.9	-8	0.0	2	.
Cc1cccc(C2CC(c3ccccc3)Nc3ncnn32)c1 (configuration not stated)	0.3	-12	-3	-8	-17	-4.0	-25	-2.1	-1	0
CC(=O)C[C@H](O)CC(=O)[C@H]1OC(=O)CCCCCCc2ccccc21	-0.4	.	5	-12	-8	-0.2	.	-4.7	.	-10
COc1cc(C(=O)Nc2ccc(Nc3ccccc3)cc2)cc(OC)c1OC	0.2	66	12	-11	-26	19	11	-3.1	56	.
CCN(CC(=O)NCc1cccs1)C(=O)c1ccc(OC)c(S(=O)(=O)N2CCOCC2)c1	-0.3	-5	9	8	9	0.7	-2	1.6	5	1
CNC(=O)C12CCC(C)(c3nc4cc(C)c(C)cc4nc31)C2(C)C (configuration not stated)	-0.8	-8	-4	.	.	.	-4	-0.7	5	-6
CCc1ccc(NC(=O)CN(N=Nc2nonc2C)c2nonc2C)cc1	-0.1	-9	8	-16	-14	1.3	27	-0.1	-42	18
CC(C)N1CCc2c(sc(NC(=O)CCc3ccccc3)c2C(N)=O)C1	-1.4	-8	-4	7	12	4.7	7	0.6	12	-6
Cc1ccc(-c2c(C(=O)N/N=C/c3ccncc3)nnn2-c2nonc2N)cc1	1.4	12	6	1	1	1.4	-2	3.8	19	-4
O=c1cc(N2CCCCC2)c(-c2ccccc2)nn1Cc1ccc(F)cc1	0.3	0	5	12	7	-0.3	55*	1.4	4	0
COc1cccc2cc(C(=O)CS(=O)(=O)c3ccc(C)cc3)c(=O)oc12	-0.4	-6	9	.	.	.	-12	0.8	13	-5
C/C=C(/C)C(=O)Nc1cccc(C2=NOC3(C2)C[C@@H](C(N)=O)N(C(=O)CC)C3)c1 (some centres not stated)	0.1	-4	-2	14	10	-3.0	-17	2.7	-7	1
Cc1nnc(NC(=O)CSc2nnc(CNC(=O)c3ccccc3)o2)s1	0.5	57	3	-2	7	-3.9	-10	7.3	-6	.
COc1ccc2nc(C)cc(SCC(=O)N/N=C/c3ccccc3)c2c1	-0.2	4	-2	.	.	.	7	-0.7	14	-16
COc1ccc(C2=NS(=O)(=O)N(C)C(C(=O)N3CCC(C)CC3)=C2)cc1	0.4	5	1	-4	16	-1.4	-2	-0.6	2	2
NCCSC1CC(=O)N(c2ccc(Cl)c(Cl)c2)C1=O (configuration not stated)	0.4	-10	8	-13	-11	-2.9	7	5.5	1	4
COC(=O)c1scc(C)c1NC(=O)c1ccccc1F	0.1	1	8	8	8	-1.7	-16	-2.6	-2	-1
CCCC1C(=O)Nc2ccccc2N1C(=O)c1cccc(C)c1 (configuration not stated)	-0.6	-1	2	-9	-2	4.5	6	-1.2	0	-5
Cc1cccc(NC(=O)C23CCC(C)(C2Br)C3(C)C)c1 (configuration not stated)	-0.8	-1	4	.	.	.	21	0.1	-9	4
CCCC(c1nnnn1C(C)(C)C)N1CCN(c2ccccc2)CC1 (configuration not stated)	1.1	98*	11	-16	-13	-0.5	-3	-1.7	-1	-1
CC(C)(C#N)C(C)(C)c1nn[nH]n1	0.2	-3	1	11	7	-6.4	-23	2.0	0	6
CCOc1ccc(CCNC(=O)CS(=O)Cc2nc(-c3ccc(C)cc3)oc2C)cc1 (configuration not stated)	0.5	99*	-28	-12	-16	3.9	10	-1.9	?	-1
CCOc1ccc(CCNC(=O)COC(=O)c2nc3nc(C)cc(C)n3n2)cc1OCC	-0.5	-1	0	.	.	.	-1	0.7	-4	6
Cc1cc(C)cc(NC(=O)c2ccc(NC(=O)c3ccco3)cc2)c1	-0.5	1	0	-3	3	-1.6	-8	0.7	4	.
O=c1c2c3nc4ccccc4nc3n(/N=C/c3ccccn3)c2ncn1-c1ccccc1	0.2	-20	-2	16	3	0.2	-23	-3.5	1	-6
(continued)
SMILES	Bfl-1 A1 inh	ALR H2O2 inh	B2AR ag	rRNA inh HTS	rRNA inh HTS OD600	rRNA inh HTS RFP	T cruzi inh	LANA-H2A inh	Calb FLC	Beta apoptosis
O=C(Nc1ccc(-c2nc3ccccc3o2)c(O)c1)c1cc(-n2cnnc2)ccc1Cl	-1.1	-5	22	.	.	.	10	-0.5	11	10
CCOC(=O)C(C)n1nc(-c2ccccc2)c2ccccc2c1=O (configuration not stated)	-0.6	-6	-1	2	4	-0.3	-7	-0.4	12	-12
N#CC1=C(N)Oc2cc(N)ccc2C1C1CCCCC1 (configuration not stated)	0.0	-4	8	.	.	.	35	-2.4	0	-2
CC(=O)NC1(c2nnnn2CCOC(=O)Nc2ccc(Cl)cc2)CCCC1	0.6	1	-5	3	25	15	-8	4.9	0	8
CN1CCN(c2ncc(CN3C(=O)c4ccccc4C3=O)s2)CC1	1.3	.	-4	5	0	-4.1	-12	.	1	-2
CCOc1ccc(CCNC(=O)C2CCN(c3nnc(-n4cccc4)s3)CC2)cc1	0.6	-2	12	-2	0	2.8	-2	-0.6	-6	0
O=C(Cn1c(=O)n(Cc2ccco2)c(=O)c2cc(Cl)ccc21)NCC1CCCO1 (configuration not stated)	0.2	.	-7	.	.	.	3	-4.3	-4	-5
Cc1cc(C)c2c(CN3CCN(Cc4ccccc4)CC3)cc(=O)oc2c1	0.2	0	-3	-4	-28	4.8	29	2.1	-5	-3
O=S(=O)(c1ccc(NC(=S)NC2CC2)cc1)N1CCOCC1	1.2	2	-3	15	12	0.8	-8	-1.6	3	-6
C=CCn1c(SCC(=O)NC2CCCCC2)nnc1-c1sc(N)nc1C	-0.6	0	-7	.	.	.	-2	-1.5	-3	-8
CCn1c(SCC(=O)N2CCOCC2)nc(O)cc1=O	0.0	8	14	8	0	-1.7	12	-1.2	-2	-9
COc1cc(N/C(N)=N/c2nc(C)cc(C)n2)cc(OC)c1	0.2	-1	8	10	0	-4.9	-1	0.5	-14	-1
Cc1ccc(-c2ccc(/C=N/NC(=O)c3ccccc3O)o2)cc1	-3.1	43	.	.	.	.	-5	-0.5	4	1
Cc1ccc2nc(CCc3ccc(N)cc3)[nH]c2c1	0.1	99*	12	3	4	0.0	-19	-0.5	-2	1
S=C(Nc1cccc(Cl)c1)N1CCN(Cc2ccccc2)CC1	0.7	2	2	7	1	-0.4	-61	1.6	-6	-9
C(=N\N1CCN(c2ccccn2)CC1)/c1ccccn1	-0.1	10	-5	.	.	.	-5	1.7	2	-1
Cc1ccc(N/N=C(\C#N)C(=N)N2CCCCC2)cc1	-0.5	99*	0	.	.	.	8	5.0	1	-1
O=C(Nc1cc(C(F)(F)F)ccc1-n1cncn1)c1ccc(Cl)cc1	-1.3	-5	-15	.	.	.	21	3.3	13	.
O=C(NC1CC1)c1ccc2c(c1)N(Cc1ccccc1)CCS2	1.6	71	-4	10	2	3.4	9	6.7	0	-5
Nc1nc(CCl)nc(N(c2ccccc2)c2ccccc2)n1	0.4	10	16	-1	0	8.5	37	-0.6	5	23
O=C(CSc1cccc[n+]1[O-])Nc1ccc(Br)cc1Br	0.2	.	11	6	-31	0.2	.	0.0	.	0
Cc1ccc(NC(=O)CCN2CCC(C)CC2)cc1	0.0	-1	-4	4	10	-11	-6	0.7	-36	-1
N#CC1=C(N)n2c(s/c(=C\c3cccs3)c2=O)=C(C#N)C1c1cccs1 (configuration not stated)	-0.2	99*	-41	.	.	.	-2	1.1	28	-9
Cc1nonc1CN(C)C(=O)CC1C(=O)NCCN1Cc1ccccc1F (configuration not stated)	0.6	-12	7	18	3	2.5	-3	-0.5	9	-5
CCOC(=O)C1C(=O)NC(SCC(N)=O)=C(C#N)C1c1ccccc1OCC (configuration not stated)	0.2	10	3	.	.	.	-16	-2.2	13	-4
Continuation.
SMILES	Bfl-1 A1 inh	ALR H2O2 inh	B2AR ag	rRNA inh HTS	rRNA inh HTS OD600	rRNA inh HTS RFP	T cruzi inh	LANA-H2A inh	Calb FLC	Beta apoptosis
Cc1ccc(C)c(NC(=O)CSc2n[nH]c(-c3ccncc3)n2)c1	-0.3	-32	-1	.	.	.	-21	2.8	-2	10
Cc1ccc(CN(CC(=O)N/N=C/c2ccccc2[N+](=O)[O-])S(=O)(=O)c2ccc(C)cc2)cc1	-0.1	-1	5	.	.	.	46	1.0	-4	-2
O=C(CSc1ccc2ccccc2c1)Nc1nc2ccccc2[nH]1	-0.1	.	0	.	.	.	-32	-4.4	-1	-22
Cc1ccc(/C([O-])=C(/C(=S)NCCN2CCOCC2)[n+]2ccccc2)cc1[N+](=O)[O-]	0.0	-7	3	3	-4	-1.1	1	-2.9	-4	-4
O=C(Cc1ccccc1)NCC(=O)OCC(=O)c1ccc(Cl)c([N+](=O)[O-])c1	0.7	5	6	.	.	.	-17	-0.4	-4	-14
COc1ccc(OC)c(S(=O)(=O)Nc2ccc3[nH]c(=O)[nH]c3c2)c1	0.6	-20	-6	-8	-9	5.5	-8	-2.1	.	-3
Cc1cccc(C)c1NC(=O)CNC(=O)C12CC3CC(CC(O)(C3)C1)C2	0.6	-4	-8	8	14	0.5	-16	0.2	1	-2
CN1/C(=C\C=C2\N=C(c3ccc(F)cc3)OC2=O)C(C)(C)c2ccccc21	0.0	10	-195	.	.	.	14	-14	-9	27
Cc1ccc(C(=O)COC(=O)CNC(=O)Cc2ccccc2)cc1	-0.1	1	-3	12	19	3.8	-21	-3.2	2	-6
Cc1ccc(NCc2nnc(SCC(=O)NCc3ccco3)n2CC2CCCO2)c(C)c1 (configuration not stated)	-0.3	72	-11	.	.	.	-4	-5.0	7	0
O=C(c1ccc(OCC2CCCO2)cc1)N1CCN(c2ccccc2)CC1 (configuration not stated)	0.7	98*	-4	-15	-7	-6.8	8	-2.6	5	0
O=C(CN1C(=O)NC2(CCCC2)C1=O)Nc1ccccc1	0.9	-1	-1	8	11	-0.1	-15	2.4	-8	-7
CCC1CCCCN1CCCNC(=O)CS(=O)Cc1nc(-c2ccc(OC)c(OC)c2)oc1C (configuration not stated)	0.2	100*	3	9	13	0.1	9	-0.5	9	-9
CN(C)S(=O)(=O)c1cccc(NC(=O)COC(=O)c2c[nH]c(=O)[nH]c2=O)c1	0.2	-8	0	8	5	-1.0	-6	2.7	-33	-2
